N370S GC mod – qHTS Assay for Inhibitors and Activators of N370S glucocerebrosidase as a Potential Chaperone Treatment of Gaucher Disease. Lysosomal acid glucosylceramidase (Homo sapiens), P04062. N370S GC spleen homogenate, 4MU-glucoside fluorescence. 330,000 tested, 0.092% active. Potency, µM (highest dose often 59.4 µM), for inactives: top-dose activity change, negative = inhibition, usual class: inhibitors. AID 2101, 2009;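 note: 0% = full enzyme activity and -100% = no enzyme basal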
FEN1 inh – qHTS Assay for the Inhibitors of Human Flap endonuclease 1 (FEN1); AID 588795, 2011; Recombinant FEN1 flap cleavage, fluorescence, 15 min; Potency, µM (top dose mostly 114 µM), for the others: at the highest dose activity change, negative = inhibition, actives largely listed as inhibitors; P39748; 390,000 tested, 0.35% active; note: nearly all actives have a fitted effect of over 65% in size
Target sequence (P39748 whole entry, looked up): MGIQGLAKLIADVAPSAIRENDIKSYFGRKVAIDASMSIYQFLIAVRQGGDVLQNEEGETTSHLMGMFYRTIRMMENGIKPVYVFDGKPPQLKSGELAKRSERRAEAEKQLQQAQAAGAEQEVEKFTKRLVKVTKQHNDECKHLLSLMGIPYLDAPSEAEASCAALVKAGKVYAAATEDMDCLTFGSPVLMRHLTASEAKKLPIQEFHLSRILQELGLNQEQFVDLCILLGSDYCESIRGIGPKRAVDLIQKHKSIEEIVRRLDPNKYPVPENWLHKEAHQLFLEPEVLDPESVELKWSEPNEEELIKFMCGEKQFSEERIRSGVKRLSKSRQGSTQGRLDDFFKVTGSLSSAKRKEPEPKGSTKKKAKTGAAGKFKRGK
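Enzyme 10 nM, 15 min RT preincubation with compound; start with substrate 50 nM final; reads at 0 and 15 min; qHTS titration, four-parameter Hill fit.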
The depositor's hits bear a star; u = inconclusive; x = not tested or not shown; [ ] = dose if it differs, or a comment. Calls come from the whole dose curve; as a rule, active = well fitted curve in the direction sought with a large enough effect; inconclusive = small, poorly fitted or top-dose-only effect, or another doubt; inactive = no such curve, though single readings can be large; an effect the other way counts as inactive or inconclusive. Unless noted, % is set by controls: 0 for no effect and ±100 for the full control effect; potency is the fitted concentration of half-maximal effect. These rows are one share of the data; most or all hits stand in other tables.

Results follow in this order: N370S GC mod | FEN1 inh
1	CCc1ccc(NC(=O)COC(=O)CCc2nc3cc(S(=O)(=O)N(CC)CC)ccc3n2C)cc1
    15% | -21%
2	CNC(=O)N(C1=NCC(C)S1)c1ccc(F)cc1F (stereo not drawn)
    -13% | 10%
3	CCc1nc2cc3sc(CC)nc3cc2s1
    7% | 15%
4	COCCOCC(O)CN1CCN(c2ccccc2)CC1 (stereo not drawn)
    -9% | 12%
5	Cc1cc2c(c(=O)n1Cc1cccnc1)C(c1ccc(F)cc1)C(C#N)=C(N)O2 (stereo not drawn)
    2% | -1%
6	Cc1ccc(NC(=O)c2cc([N+](=O)[O-])ccc2N2CCOCC2)cc1S(=O)(=O)N(C)C
    2% | -5%
7	CN(Cc1cccnc1)C(=O)CNC(=O)COc1ccccc1
    -1% | 0%
8	COc1ccc(N2C(=S)NC3CS(=O)(=O)CC32)cc1 (stereo not drawn)
    -14% | 1%
9	O=C(CS(=O)(=O)c1c[nH]c2ccccc12)N1CCCCC1
    28% | -4%
10	CCOC(=O)/C=c1/s/c(=C\c2c(OC)ccc3ccccc23)c(=O)n1CC(=O)NCC1CCCO1 (stereo not drawn)
    x | 11%
11	Oc1cc(NCc2cccnc2)ccc1-c1nc2ccccc2o1
    3% | -10%
12	C=CCN(C(=O)CNC(=O)c1ccco1)C(C(=O)NC1CCCCC1)c1ccc(OC)cc1OC (stereo not drawn)
    -1% | -2%
13	O=C(Nc1cc(Cl)cc(Cl)c1)c1ccc(F)c(S(=O)(=O)N2CCCC2)c1
    x | -21%
14	O=C(CCCCCN1C(=O)c2ccccc2C1=O)NC1CCCC1
    2% | 1%
15	CCC(C)(C)NC(=O)C(c1ccc(OC)cc1)N(C(=O)CCC(=O)Nc1cc(C)on1)c1ccc2c(c1)OCCO2 (stereo not drawn)
    -11% | 6%
16	COc1ccc(NC(=O)CN(C)C(=O)CCNC(=O)Nc2ccccc2)cc1
    1% | -2%
17	CC(=O)c1ccccc1Oc1nc(CN2CCOCC2)nc2scc(-c3cccs3)c12
    6%[2.35 µM] | 0%
18	COc1ccccc1NC(=O)CSc1nnc(-c2ccco2)n1N
    -4% | -20%
19	CNNC(=S)NC1CC2CC1C1C=CCC21 (stereo not drawn)
    13% | 9%
20	Cc1cc2cc(CNC(=O)C3CCCC3)ccc2n1C
    9% | -4%
21	CC(=O)Oc1ccc(/C=N/NS(=O)(=O)c2ccc(C)cc2)c(OC(C)=O)c1
    -1% | -7%
22	C=CCN(CC=C)CC(=O)Nc1cccc(Oc2cnccn2)c1
    -6% | 14%
23	COc1ccccc1NC(=O)c1cc(S(=O)(=O)NCc2ccccc2)ccc1F
    11% | 14%
24	Cc1nc(C)c(C(=O)OC(C)C(=O)Nc2ccc(F)cc2)s1 (stereo not drawn)
    x | -7%
25	COc1ccc(CNC(=O)COC(=O)c2cncc(Br)c2)cc1
    -1% | -2%
26	CCOC(=O)c1cccc(NC(=O)c2sc3nc[nH]c(=O)c3c2C)c1
    x | -8%
27	Cc1ccc(CNC(=O)[C@@H](NC(=O)Cc2ccccc2)C(C)C)cc1
    -2% | 7%
28	COc1cccc(OC)c1C(=O)NC(=S)Nc1ccc(N2CCOCC2)c(Cl)c1
    -4% | 1%
29	COc1cccc(CN2C(=O)CN(C3CCCCC3)C(=O)C2c2ccc(OC(C)C)c(OC)c2)c1 (stereo not drawn)
    x | 14%
30	Cc1nc(S(=O)(=O)c2ccc(Cl)cc2Cl)nc2c1CCC2
    18% | 0%
31	O=C(CN1C(=O)NC2(CCCCC2)C1=O)N1CCOCC1
    x | 0%
32	CCN(CC)S(=O)(=O)c1ccc(Cl)c(C(=O)OC)c1
    26% | 9%
33	Cc1ccc(C(=O)N2CCC(C(=O)NCc3ccco3)CC2)cc1
    -19% | -1%
34	Cc1ccc(NC(=O)CCC(=O)N2CCC(C)CC2)c([N+](=O)[O-])c1
    -12% | 14%
35	O=C(Nc1ccc(N2CCOCC2)cc1N1CCOCC1)c1cccs1
    1% | -2%
36	Cn1ccnc1SCC(=O)Nc1cccc(O)c1
    -1% | -3%
37	CCCCOc1c(Br)cc(/C=C2\N=C(C)OC2=O)cc1OCC
    3% | -1%
38	COc1cccc(C(c2sc3ncnn3c2O)N2CCN(C(=O)c3ccco3)CC2)c1 (stereo not drawn)
    2% | -6%
39	CCCCN(Cc1ccccc1)S(=O)(=O)c1ccc2[nH]c(=O)oc2c1
    -11% | -2%
40	Cc1cccc(-n2cc(-c3ccc([N+](=O)[O-])cc3)[nH]c2=S)c1
    19% | -3%
41	NC(=O)Cn1nnc(-c2ccc(NC(=O)c3ccc(F)cc3)cc2)n1
    1% | -7%
42	COc1ccc(C2N(c3cc(Cl)ccc3OC)C(=O)C3CCCN32)cc1 (stereo not drawn)
    1% | -1%
43	COc1ccc(C(=O)Nc2ccc(O)cc2C(=O)O)cc1
    -4% | -17%
44	Cc1ccc2[nH]c(C)c(CCNC(=O)c3cc4cc([N+](=O)[O-])ccc4oc3=O)c2c1
    4% | -6%
45	CN(C(=O)c1ccc(NC(=O)Cc2ccc(NC(=O)C3CCN(C(=O)C4CCCC4)CC3)cc2)cc1)C1CC1
    x | -9%
46	CC(C)OC(=O)CSc1nnnn1-c1ccc2c(c1)OCCO2
    -9% | -2%
47	CCN1CCN(c2cc(C)c3cc(NC(=S)N4CCC5(CC4)OCCO5)ccc3n2)CC1
    6% | 7%
48	CCOC(=O)c1c(C)[nH]c(C)c1S(=O)(=O)N1CCCC(C(=O)NCc2ccc(C)cc2)C1 (stereo not drawn)
    x | 3%
49	COc1cccc2c(Nc3ccccc3C)cc(C)nc12
    -20% | -13%
50	COc1ccc(N(CC(=O)Nc2ccc(S(=O)(=O)N3CCCCC3)cc2)S(C)(=O)=O)cc1OC
    -2% | 0%
51	O=C(NCc1cccc(C(F)(F)F)c1)c1cccc(Cl)c1Cl
    -3% | -17%
52	Cc1cc(=O)n2[nH]c(NC(=O)c3cccc(Cl)c3)nc2n1
    x | 19%
53	O=C(COC(=O)CCc1nc2ccccc2s1)NCc1ccco1
    8% | 3%
54	O=C(O)c1cccc(Oc2cccc(Cl)n2)c1
    3% | 1%
55	COc1ccc(C(=O)NCCc2cc3ccc(C)c(C)c3[nH]c2=O)cc1OC
    -7% | -17%
56	O=C(Nc1ccccc1)/C(=C/c1ccccc1)c1ccccc1
    3% | -4%
57	O=C(CSc1nnc(NC(=O)c2c(F)cccc2F)s1)Nc1ccccc1F
    -11% | -6%
58	O=C(NCCCn1ccnc1)c1ccc(Br)c(S(=O)(=O)N2CCOCC2)c1
    5% | -5%
59	CCCNC(=O)CN1C(=O)NC(c2ccccc2)(c2ccccc2)C1=O
    -2% | -4%
60	Cc1ccc(C)c(SCC(=O)Nc2ccc(C)c(S(=O)(=O)N3CCOCC3)c2)c1
    x | -27%

13 neighbouring compounds out of the list so far:
Results follow in this order: N370S GC mod | FEN1 inh
1	CCc1ccc(NC(=O)COC(=O)CCc2nc3cc(S(=O)(=O)N(CC)CC)ccc3n2C)cc1
    15% | -21%
2	CNC(=O)N(C1=NCC(C)S1)c1ccc(F)cc1F (stereo not drawn)
    -13% | 10%
3	CCc1nc2cc3sc(CC)nc3cc2s1
    7% | 15%
4	COCCOCC(O)CN1CCN(c2ccccc2)CC1 (stereo not drawn)
    -9% | 12%
5	Cc1cc2c(c(=O)n1Cc1cccnc1)C(c1ccc(F)cc1)C(C#N)=C(N)O2 (stereo not drawn)
    2% | -1%
6	Cc1ccc(NC(=O)c2cc([N+](=O)[O-])ccc2N2CCOCC2)cc1S(=O)(=O)N(C)C
    2% | -5%
7	CN(Cc1cccnc1)C(=O)CNC(=O)COc1ccccc1
    -1% | 0%
8	COc1ccc(N2C(=S)NC3CS(=O)(=O)CC32)cc1 (stereo not drawn)
    -14% | 1%
9	O=C(CS(=O)(=O)c1c[nH]c2ccccc12)N1CCCCC1
    28% | -4%
10	CCOC(=O)/C=c1/s/c(=C\c2c(OC)ccc3ccccc23)c(=O)n1CC(=O)NCC1CCCO1 (stereo not drawn)
    x | 11%
11	Oc1cc(NCc2cccnc2)ccc1-c1nc2ccccc2o1
    3% | -10%
12	C=CCN(C(=O)CNC(=O)c1ccco1)C(C(=O)NC1CCCCC1)c1ccc(OC)cc1OC (stereo not drawn)
    -1% | -2%
13	O=C(Nc1cc(Cl)cc(Cl)c1)c1ccc(F)c(S(=O)(=O)N2CCCC2)c1
    x | -21%

Later entries:
Results follow in this order: N370S GC mod | FEN1 inh
61	CCOC(=O)c1ccc(NC(=O)c2ccc[n+]([O-])c2)cc1
    -5% | -4%
62	CC(C)Cn1c(=O)c(CCC(=O)Nc2ccc(N3CCOCC3)cc2)nc2cc(Cl)ccc21
    19% | 12%
63	COC(=O)Cc1cc(=O)n2[nH]c(SC)nc2n1
    7% | 1%
64	O=C(Oc1cccc2c(=O)[nH]ccc12)c1ccccc1
    11% | 10%
65	COc1ccc(C(=O)N2CCn3c2nc2ccccc23)cc1
    9% | -1%
66	Cc1noc(C)c1C(=O)Nc1nc(-c2cc(F)ccc2F)cs1
    0% | -1%
67	N/C(=N\OC(=O)c1cccc(Cl)c1)c1cccnc1
    3% | 1%
68	COc1ccccc1C(=O)NC(C(=O)NCCc1nc2ccccc2[nH]1)=C(C)C
    -5% | -5%
69	COc1ccc(/C(N)=N/OC(=O)c2cccc([N+](=O)[O-])c2C)cc1
    0% | 3%
70	CCC(=O)N1CCN(c2ccc(Cl)cc2NC(=O)c2ccc([N+](=O)[O-])o2)CC1
    -4% | -17%
71	Cc1nc(NC(=O)/C=C/c2ccccc2)sc1C(=O)N(C)C
    9% | 1%
72	CCOC(=O)c1ccc(N2C(=O)c3n[nH]c(-c4ccco4)c3C2c2ccc(O)c(OCC)c2)cc1 (stereo not drawn)
    x | -21%
73	COC(=O)c1ccc(NC(=O)N2CCN(c3nnc(C)c4c(C)n(-c5ccccc5)nc34)CC2)cc1
    x | -1%
74	COc1ccc(OC)c(NC(=O)Nc2cccc(OCc3cc(=O)n4cc(C)ccc4n3)c2)c1
    x | 11%
75	CCC(C)NC(=O)CCC(=O)Nc1ccc2nc(N3CCOCC3)cc(C)c2c1 (stereo not drawn)
    -8%[12.8 µM] | 4%
76	COc1ccc(OC)c(/C(O)=C/C(=O)C(=O)Nc2cc(C)ccc2OC)c1
    -1% | u
77	CCOC(=O)c1cc2sccc2n1CC(=O)Nc1ccc2c(c1)OCCO2
    -7% | 2%
78	CCN(CC(=O)Nc1ccccc1C(F)(F)F)C(=O)c1cccc(S(=O)(=O)N2CCN(C)CC2)c1
    -9% | 10%
79	COC(=O)Nc1nnc(-c2ccccc2OC)s1
    -1% | 0%
80	Cc1ccc(N2CCN(S(=O)(=O)N3CCCCC3)CC2)c(C)c1
    -6% | -8%
81	CCCC1(C(=O)OCC)NC(c2ccc(OC)cc2OC)C2C(=O)N(c3ccccc3)C(=O)C21 (stereo not drawn)
    4% | 5%
82	Cc1ccc(-c2noc(CN(C(=O)c3ccc4c(c3)OCO4)C(C)C)n2)cc1
    u | -3%
83	O=C(NCc1ccc(F)cc1)C1CCCN1S(=O)(=O)c1cccc2nsnc12 (stereo not drawn)
    3% | 0%
84	CCN(CC)CCCN(C(=O)c1ccccc1F)c1nc(-c2ccc(OC)cc2)cs1
    -11% | -7%
85	O=C(NCc1cccnc1)c1cccc2c1C(=O)N(C1CCCCC1)C2
    9% | -8%
86	CCCCN(C(=O)CN1C(=O)C2CCCCC2C1=O)c1c(N)n(CCCC)c(=O)[nH]c1=O (stereo not drawn)
    -8% | -10%
87	O=C(O)c1ccc2c(c1)C(=O)/C(=C/c1ccccc1)C2=O
    -7% | 40µM*
88	O=C(NCCc1cccs1)C1CC(c2cccc([N+](=O)[O-])c2)=NO1 (stereo not drawn)
    -15% | -13%
89	O=C(/C=C/Nc1ccc(S(=O)(=O)Nc2cnc3ccccc3n2)cc1)c1cccnc1
    -12% | -2%
90	CCc1ccccc1NC(=O)C1CCCN1S(=O)(=O)c1ccc(-c2ccc(=O)[nH]n2)s1 (stereo not drawn)
    7% | 14%
91	COc1cccc(OCC(O)CN2CCN(c3ccc(F)cc3)CC2)c1 (stereo not drawn)
    -21% | 11%
92	CC1CC1C(=O)N1CCN(S(=O)(=O)c2cccc(F)c2)CC1 (stereo not drawn)
    0% | -9%
93	COC(=O)c1csc2c(C(F)(F)F)cc(N3CCN(C(=O)Nc4ccccc4)CC3)nc12
    5% | 4%
94	CN1CCN(c2ncc3nc(-c4ccc(Cl)cc4)c(=O)n(Cc4ccc(F)cc4)c3n2)CC1
    -23% | x
95	O=C(Cc1ccccc1)NCc1n[nH]c(=S)n1-c1ccccc1
    -7% | -3%
96	Cc1ccc(N2CC(C(=O)NC3CCC(C)CC3)CC2=O)cc1 (stereo not drawn)
    -2% | -3%
97	Cc1ccnc2nc(C(=O)OCC(=O)NC(=O)NCc3ccco3)nn12
    3% | 21%
98	N#CCSc1nnc(N)s1
    2% | -17%
99	O=c1cc(O)c2c(=O)n(-c3ccccc3)c3c(c2o1)CCCCCC3
    -1% | -2%
100	COc1cc(OC)c2c(-c3cccc(-c4ccoc4)c3)cc(=O)oc2c1
    x | -13%
101	COc1ccc(CNc2nc(S(=O)(=O)c3ccccc3)c(Cl)s2)cc1OC
    5% | -4%

Bioassay records (PubChem)
